NPYLR7 ag = activates Aedes aegypti NPYLR7 receptor; activation, % at 10 µM; HEK293T NPYLR7/Galpha15, GCaMP6s calcium fluorescence; actives 0.15% (n = 270,000); in the data active means activation above about 40%;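 further: 0% = vehicle and 100% = reference agonist at the receptor; some compounds past the cut are filed as inactive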
NPYLR7 ag max-min = also measured in NPYLR7 ag; calls as there; activation, %; measured here: Max-Min RFU normalised activation; some inactives read as strong as hits;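 span of the calcium signal over five minutes; 0% = vehicle and 100% = native peptide agonist; compound fluorescence can raise it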
The depositor's hits bear a star; i = inactive; & = joins results of further samples. This is a subset (hit frequency here may not be typical).

Preview, 2 compounds:
Each structure is followed by: NPYLR7 ag, NPYLR7 ag max-min
- COc1nc(-c2ccccc2F)n(-c2ccc(NC(=O)C3CCC3)cc2)n1
→ 20, 27
- COc1ccc(C2=NOC(CN(Cc3ccccc3Cl)C(=O)C3CCCC3)C2)cc1 (stereo not given)
→ 22, 28

This part in full, repeating the preview:
Each structure is followed by: NPYLR7 ag, NPYLR7 ag max-min
- COc1nc(-c2ccccc2F)n(-c2ccc(NC(=O)C3CCC3)cc2)n1
→ 20, 27
- COc1ccc(C2=NOC(CN(Cc3ccccc3Cl)C(=O)C3CCCC3)C2)cc1 (stereo not given)
→ 22, 28
- CN(C)c1ccc(/C=N\NC(=O)CSc2nc3ccccc3n2Cc2ccccc2)cc1
→ 2, -1
- COc1ccc(-c2ccc(C)nc2N)c(OC)c1
→ 11, 5
- Cc1ccc(CN2CC(C(=O)NCCN3C(=O)SC(=Cc4cccs4)C3=O)CC2=O)cc1 (stereo not given)
→ 2, 7
- COc1ccc(C2Nc3ccccc3C(=O)N2c2ccc(C)cc2)cc1CN1C(=O)c2ccccc2C1=O (stereo not given)
→ -7, -10
- COCCN1C(=O)N(Cc2cccc3ccccc23)C(=O)C12CCN(Cc1ccc(F)c(F)c1)CC2
→ 13, -1
- COc1ccc(N2C(=O)c3ccc(-c4nc5ccccc5c(=O)o4)cc3C2=O)cc1OC(C)=O
→ -4, -9
- CN(C)CCn1c(=S)[nH]c2ccc(Cl)cc2c1=O
→ 12, 13
- Cc1ccc(N=Nc2c(C)[nH]n(-c3ccccc3)c2=O)cc1[N+](=O)[O-]
→ -3, -10
- O=C(/C=C/c1cccs1)N(Cc1cccnc1)c1nc2c(F)cc(F)cc2s1
→ -16, -11
- O=S(=O)(Nc1ccc(Oc2ccccc2)nc1)c1ccccc1
→ 9, 5
- COc1ccccc1C(=O)NNC(=O)CCN1C(=O)/C(=C/c2ccccc2)SC1=S
→ 12, 12
- CC(C)CCn1c(=O)n(CCC(=O)N2CCCC2)c2cc(C(=O)O)ccc21
→ 11, 12
- Cc1cc(C)c(NC(=O)CSc2nc3[nH]ncc3c(=O)[nH]2)c(C)c1
→ -4, -5
- CCCNC(=O)c1cc(-c2cccs2)nc2ccccc12
→ 3, 2
- Cc1cc(Oc2cccc(F)c2)nc(SCc2cccc(C(F)(F)F)c2)n1
→ -9, 4
- O=C(CCC1CCN(C(=O)C2CC(=O)N(Cc3ccccn3)C2)CC1)NC1CC1 (stereo not given)
→ -1, -1
- CC(=O)C1=C(c2cccc([N+](=O)[O-])c2)N(C(C)=O)n2c(nnc2C2CCCCC2)S1
→ 4, 1
- O=c1c2cnc3nc(-c4ccccc4)nn3c2ccn1CCc1cccs1
→ 4, 11
- CCOC(=O)CN1C(=O)CCN(C(=O)c2ccc(NC(C)=O)cc2)CC(OC)c2ccccc21 (stereo not given)
→ 1, 1
- NC(=O)CN(Cc1nc2ccccc2s1)C1CCCC1
→ 3, -1
- COc1nc(N(C)S(=O)(=O)c2ccc(C)cc2)nc(C)c1Cl
→ 1, 0
- Cc1ccc2nc(C)cc(C(=O)O)c2c1
→ -4, 0
- COc1ccccc1-c1nc2cc(C)ccn2c1NC(=O)c1cccc(C(F)(F)F)c1
→ -5, -1
- Cc1ccc2ncn(C3CCN(C(=O)CCc4ccccc4C)CC3)c2c1
→ 5, 3
- CCOC(=O)COc1ccc2c(=O)c(-c3ccc(Cl)cc3)c(C)oc2c1
→ -4, -9
- COc1ccc(-c2nc(C=CC(=O)N3CCN(C(C)=O)CC3)cs2)cc1
→ 3, -1
- COC(=O)c1cn(CC(=O)NC(C)C(C)(C)C)nn1 (stereo not given)
→ 2, 5
- CCSCC(C)N(C)C(=O)c1ccc2[nH]c(=S)oc2c1 (stereo not given)
→ 9, 8
- Cc1ccccc1CCNC(c1cccc(C#N)c1)P(=O)(O)O (stereo not given)
→ 11, 14
- CC(C)C(C(=O)N1CCC(C(N)=O)C1)c1ccc(Cl)cc1 (stereo not given)
→ 1, -2
- COc1cc(O)c(C(C)=O)c(OC)c1
→ -9, -15
- Cc1ccc(CNC(=O)Nc2nn(Cc3ccc(C(F)(F)F)cc3)c3ccccc23)cc1
→ 14, 14
- Cc1noc(C)c1CSCc1cc(=O)oc2cc3c(cc12)CCC3
→ 1, 9
- CC1CCCN(C(c2ccc(F)cc2)C2Sc3nc(-c4ccco4)nn3C2=O)C1 (stereo not given)
→ 7, 6
- CN(Cc1nc(-c2ccccc2)no1)C(=O)C1CC2(CCNCC2)CN1 (stereo not given)
→ 19, 5
- CC(C)(C)c1ccc(N=Nc2c(O)[nH]c3ccccc23)cc1
→ -2, -8
- CCOC(=O)c1cnc(-c2ccncc2)nc1N1CCCCCCC1
→ -6, -7
- O=C(NCc1ccc(Cn2cccn2)cc1)c1cnn(Cc2ccccc2Cl)c1
→ 8, 4
- CCc1nnc(-c2cc3ccccc3n2CC(=O)Nc2cccc(OC)c2)o1
→ 0, -1
- Cc1nc(N2CCCCC2)ncc1C(=O)N1CCCC2(CC1)CNC(=O)O2 (stereo not given)
→ -2, -2
- Cc1ccc(/C=C/S(=O)(=O)NCCn2nc(-c3cccnc3)ccc2=O)cc1
→ 13, 5
- COc1ccc(C(C2Sc3nc(C)nn3C2=O)N2CC(C)OC(C)C2)cc1OC (stereo not given)
→ 3, 1
- COc1ccc(C(=O)NC(=S)N(C)C2CCCCC2)cc1I
→ 0, -2
- CCOC(=O)CSc1ccc(NC(=O)c2cccc(F)c2)nn1
→ -1, -2
- CCN(CC(=O)NC(C)(C)C)C(=O)C1CC2CCCC(C1)C21SCCS1 (stereo not given)
→ 5, 7
- CS(=O)(=O)N(CC(=O)N1CCN(c2cccc(Cl)c2)CC1)c1ccc(Cl)c(Cl)c1
→ -3, -9
- N#CCO/N=C(/c1ccccc1)c1ccncc1
→ 0, 14
- CC(C)Nc1ccnc(N2CCC(n3cc(-c4ccsc4)nn3)CC2)n1
→ 7, 5
- O=C1N(c2ccc3c(c2)OCO3)C(c2cccc(F)c2)C1(F)F (stereo not given)
→ 1, 22
- CCOCCOc1nc(-c2ccc(OC)cc2)n(-c2cccc(NC(=O)c3ccc(C(F)(F)F)cc3)c2)n1
→ 8, 8
- Cc1ccc(F)c(N2C(=O)CSC2c2cccc(NC(=O)c3cccc(Br)c3)c2)c1 (stereo not given)
→ 7, 15
- CC(=O)Nc1ccc2nc(NC(C)=O)sc2c1
→ 5, 7
- Cc1ccccc1Oc1cc(C(F)(F)F)nc(SCc2cccc(C#N)c2)n1
→ 1, 2
- CCCCN1CCN(c2nc3c(c(=O)[nH]c(=O)n3C)n2Cc2ccccc2F)CC1
→ 3, 28
- Cc1ccc(NC(=O)N(CC(=O)N2CCc3sccc3C2COc2cccc(F)c2)Cc2ccco2)cc1 (stereo not given)
→ 4, 18
- Cc1nc(-c2cccc(C(F)(F)F)c2)nc(N2CCN(C(=O)c3ccc([N+](=O)[O-])cc3)CC2)c1Cc1ccccc1
→ 19, 17
- Cc1ccc2nc(C3CCCN(C(=O)C4CC5CCC4O5)C3)[nH]c2c1 (stereo not given)
→ -11, -10
- COCCCN(Cc1c(-c2ccc(F)cc2)noc1N1CCN(C)CC1)C(=O)c1ccco1
→ -5, -4

Further results:
Structure,NPYLR7 ag,NPYLR7 ag max-min
CCCN(CC1CC1)C(=O)COC(=O)C(C#N)=Cc1cc(C)n(CCC(C)C)c1C,2,4
CC(C)N(CCC(N)=O)C(=O)c1cc(C(F)(F)F)[nH]n1,4,8
O=C(Nc1ccc(F)cc1)c1ccc(CSc2nnc(Cc3ccccc3)n2-c2ccccc2F)cc1,5,5
C#CCOCC(O)CN(Cc1ccc(F)cc1F)C1CC1 (stereo not given),34,36
CC(C)c1cc(C(=O)N2CCCC2)nn1-c1nc2ccccc2s1,21,9
O=C(NCC1(c2ccccc2F)CCCC1)C1CC2(CCNCC2)CN1 (stereo not given),18,7
O=C(O)CCS(=O)c1ccc2c(c1)OCCO2 (stereo not given),18,13
CC(=O)Nc1ccc(OCC(=O)N2c3ccccc3CC2C)cc1 (stereo not given),0,-1
Nc1c(Cl)cc(S(N)(=O)=O)cc1Cl,0&10,-1&8
COC(=O)c1noc(C(=O)OC)c1O,-2&-6,-2&-3
Cc1nc(OCC(=O)NCC2CCCCC2)c2ccccc2n1,-3,-5
CCC(=O)C1=C(c2ccc3c(c2)CCCC3)N(C(=O)CC)n2cnnc2S1,11,5
Nc1cc(-c2cccs2)nn1C1CCS(=O)(=O)C1 (stereo not given),3,2
Nc1nnc(SCCOc2ccccc2)s1,0&-1,-1&1
Cc1cc(N2CCC3(CC2)CNC(=O)O3)nc(-c2ccccc2)n1,3,1
COCc1c(C(=O)N2CCCC3(CN(C)C(=O)O3)C2)noc1C (stereo not given),5,3
Cc1n(CC(O)COCC2CC=CCC2)c2ccccc2[n+]1C (stereo not given),2,-2
COc1cccc(OC)c1-c1ccc(-n2cncc2C(=O)NC2CCC[C@H]2OCc2ccccc2)cc1 (stereo not given in full),11,7
COCCN(Cc1csc(COc2cc(C)cc(C)c2)n1)C(=O)Cc1ccccc1,-3,5
COc1ccc(C)cc1NC(C)C(=O)Nc1sc2c(c1C#N)CCCCC2 (stereo not given),-5,-6
CCc1ccccc1NC(=O)c1cc(-c2cccc(OC)c2)nc2ccccc12,1,4
O=C(Nc1cccnc1N1CCN(C(=O)c2ccc(-c3cccc(Cl)c3)s2)CC1)c1ccc2c(c1)OCO2,23,18
Cc1[nH]cnc1CN(C)C1CC(C)(C)NC(C)(C)C1,-4,-5
CC(C)c1cc(CN(C)C(=O)c2cc(Cn3cnc4ccccc43)[nH]n2)on1,15,1
Cc1nc(C)c(Cc2ccc(Cl)cc2Cl)c(N2CCN(C(=O)c3cccs3)CC2)n1,2,9
O=C(CSc1nc2cc(F)c(F)cc2[nH]1)N1CCC(c2ccccc2)=N1,7,1
O=P1(NCc2cccnc2)C=C(c2ccccc2)SC(c2ccccc2)=C1,0,5
CCOC(=O)c1c(NC(=O)c2cccc(Cl)c2)sc2c1CCN(c1ccc(Cl)nc1)C2,20,13
CC(=O)c1cc(C(=O)N(CC2CCN(C3CCCC3)CC2)CC2CCCO2)cs1 (stereo not given),9,7
Cc1ccc(N2C(=O)C(c3c(C)[nH]n(-c4ccc(Cl)cc4)c3=O)=C([n+]3ccccc3)C2=O)cc1,5,3
C=CCOc1ccc(Br)cc1CNC(C)(C)CO,-4,4
O=C(c1ccccc1)[C@@H]1[C@@H]2CC[C@@H](C2)[C@@H]1C(=O)O,6,4

3 compounds from above, sorted by SMILES length, lowest first:
Structure,NPYLR7 ag,NPYLR7 ag max-min
O=P1(NCc2cccnc2)C=C(c2ccccc2)SC(c2ccccc2)=C1,0,5
CC(=O)c1cc(C(=O)N(CC2CCN(C3CCCC3)CC2)CC2CCCO2)cs1 (stereo not given),9,7
O=C(c1ccccc1)[C@@H]1[C@@H]2CC[C@@H](C2)[C@@H]1C(=O)O,6,4

Whole records as entered above:
`O=C(c1ccccc1)[C@@H]1[C@@H]2CC[C@@H](C2)[C@@H]1C(=O)O` reads NPYLR7 ag: 6; NPYLR7 ag max-min: 4
`CC(=O)c1cc(C(=O)N(CC2CCN(C3CCCC3)CC2)CC2CCCO2)cs1` (stereo not given) reads NPYLR7 ag: 9; NPYLR7 ag max-min: 7
`O=C(CSc1nc2cc(F)c(F)cc2[nH]1)N1CCC(c2ccccc2)=N1` reads NPYLR7 ag: 7; NPYLR7 ag max-min: 1

New compounds follow:
Structure,NPYLR7 ag,NPYLR7 ag max-min
CCCn1c(N)c(-c2csc(-c3cccc(C)c3)n2)c(=O)n(C)c1=O,5,2
O=C(CN1CCCC1)N1N=C(c2ccco2)CC1c1cn(-c2ccccc2)nc1-c1ccccc1 (stereo not given),1,-1
O=C(O)C1CCCN(CCC=C(c2ccccc2)c2ccccc2)C1 (stereo not given),2,9
CCOC(=O)Oc1ccc2c(C)c(CC(C)OC(=O)OCC)c(=O)oc2c1 (stereo not given),-4,-4
OCCCc1cn(C2CCN(C/C=C/c3ccc(F)cc3)CC2)nn1,-2,-8
OC(c1ccccc1)(c1ccccc1)C1CCN(Cc2ncc[nH]2)CC1,-2,-4
COc1ccc(C=C2N=C(c3cccc(S(=O)(=O)N(C)C)c3)OC2=O)cc1,1,-3
CCCn1nc(C)c(CNC(=O)C2CCN(C(C)=O)CC2)c1C,-1,0
COCC(=O)N(Cc1ccc(OS(=O)(=O)C(C)C)cc1)C1CC1,32,34
O=C(NC1CCCCC1)C1CCCN(Cc2cc(Cl)c3c(c2)OCO3)C1 (stereo not given),2,-2
CCOC(=O)c1nc(-c2cccs2)oc1N,-4,i
CCOc1ccc(-c2ccc(OCCNC(=O)C3CC3)nn2)cc1,-1,-1
O=C(OCC(=O)N1CCOCC1)c1cccs1,3,10
Cc1sc(-c2ccco2)nc1C(=O)NCC(F)(F)F,1,1
COc1ccc(OC)c(S(=O)(=O)NC(=O)C2(C)CCN2C(=O)C2CCCCC2)c1 (stereo not given),6,4
COc1ccccc1C(=O)Nc1ccc2c(c1)CN(Cc1csc(C(C)=O)c1)CC2,14,8
CC1N(C)c2ccc(C=Cc3sc4ccccc4[n+]3C)cc2C1(C)C (stereo not given),5,0
Cc1ccccc1-c1noc(CCC(=O)N(C)Cc2nc(C3CC3)no2)n1,-7,-16
O=C(NCC1CC1)c1csc(N2CCN(Cc3ccccc3)C2=O)n1,-5,-8
CCOc1ccc(S(=O)(=O)Nc2ccsc2C(=O)OC)cc1,3,-1
COC(=O)CCn1c(=O)c2c(nc3oc(C(C)(C)C)cn32)n(C)c1=O,1,5
CCc1nn(-c2ccc(OC)cc2)c(CC)c1C(=O)O,10,16
